T cruzi inh: inhibitors of intracellular T. cruzi growth, primary screen, luminescence, NIH3T3 host cells; T. cruzi beta-gal in NIH3T3, 90 h; inhibition, % (no concentration beside the values); 1.4% of 300,000 active;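 active = mean inhibition across valid replicates above about 55%, limit read from the data; inconclusive = mean below that limit but half or more replicates reach it; inactive = mean below it, under half of replicates reach it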;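 note: signal also drops with host cell toxicity which is not excluded here; 0% = plate median of DMSO wells and 100% = zero luminescence signal; higher percent means less beta-gal luminescence so fewer parasites; stock transfer was 50 nL into about 50 µL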
Vif A3G: inhibitors of Vif binding to APOBEC3G peptide, primary screen, biochemical, TR-FRET, GST-Vif 1-94, biotin-A3G peptide, dose response retest (AID 1117319). TR-FRET GST-Vif / biotin-A3G peptide binding; higher % means a stronger effect; test concentration not given here; strong numbers were not always called active. one-dose inhibition, %; IC50 in µM for titrated hits. 0.57% of 260,000 active;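 active = above the screen mean plus three standard deviations and confirmed in dose response; inconclusive = results disagree or hit not tested in dose response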;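 note: Vif residues 1-94 fused to GST binding biotinylated APOBEC3G peptide 110-148; 0% = full assay without inhibitor and 100% = GST in place of GST-Vif; retest series ran down from 100 µM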
AF4-AF9 inh: inhibitors of AF4 peptide binding to AF9, primary screen, biochemical, AlphaScreen, biotin-AF4 peptide, FLAG-AF9, single point | Protein AF-9 (Homo sapiens), P42568 | AID 651704, 2012 | 0.47% of 350,000 active | inhibition, % at 10 µM;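 active = every replicate reaching a set inhibition limit, whatever the replicate mean, cut at about 25% in these data; inconclusive = mean inhibition reaches that limit but some replicates miss it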;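 note: 0% = plate neutral control median and 100% = total signal loss; the record names both 10 and 1 µM as test concentration; the first replicate is given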
Target sequence (P42568 whole entry, looked up): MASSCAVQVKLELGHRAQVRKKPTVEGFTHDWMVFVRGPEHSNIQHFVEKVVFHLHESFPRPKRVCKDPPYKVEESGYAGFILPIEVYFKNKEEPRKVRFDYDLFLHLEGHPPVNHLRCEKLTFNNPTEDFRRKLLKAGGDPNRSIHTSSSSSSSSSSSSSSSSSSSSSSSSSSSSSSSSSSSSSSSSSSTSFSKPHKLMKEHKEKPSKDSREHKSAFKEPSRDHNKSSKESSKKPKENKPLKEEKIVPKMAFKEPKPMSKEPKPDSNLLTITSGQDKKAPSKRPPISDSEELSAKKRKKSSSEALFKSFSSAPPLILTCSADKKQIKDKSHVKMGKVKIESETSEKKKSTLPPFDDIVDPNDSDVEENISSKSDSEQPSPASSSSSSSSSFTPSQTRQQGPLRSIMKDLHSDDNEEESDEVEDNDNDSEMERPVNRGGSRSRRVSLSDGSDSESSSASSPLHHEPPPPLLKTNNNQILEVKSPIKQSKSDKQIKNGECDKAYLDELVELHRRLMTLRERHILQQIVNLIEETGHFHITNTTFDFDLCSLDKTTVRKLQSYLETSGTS
Beta apoptosis: inhibitors of cytokine-induced beta cell apoptosis, primary screen, luminescence; INS-1E cytokine-induced death, ATP luminescence, 48 h; percent of positive-control rescue, neutral wells zero; protection from apoptosis, % (concentration not given with the values); 0.8% of 300,000 active; AID 435005, 2010;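 active = all replicates at 75% or more, or half of them and the mean; inconclusive = half reach 75% but not the mean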;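 note: 0% = cytokine-treated negative control wells and 100% = positive control rescue; higher means more ATP so stronger rescue from cytokine killing; wells of about 40 µL received 100 nL stock; the first replicate is given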
A1 inh: caspase 3/7 activation in MEF A1-2A-BIM cells, primary screen, A1 inhibitor project, cell-based, luminescence, HTS; Caspase-Glo 3/7 luminescence, 3 h; percent of clofoctol response, vehicle zero; 0.066% of 330,000 active; AID 2462, 2010; caspase activation, % (no concentration beside the values);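 active = over half of replicate activation scores above 10%, or exactly half above 10 with the replicate mean above 10; inconclusive = replicate mean below 10 yet half the replicates above 10; inactive = over half of replicates below 10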;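 note: wells of about 30 µL received 50 nL stock; many hits fall short of the cut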
RanGTP-Impb inh: inhibitors of RanGTP-importin-beta interaction, primary screen, biochemical, FRET, CFP-Ran, YFP-importin-beta, homogeneous; cell-free CFP-Ran/YFP-importin-beta FRET ratio; inhibition, % (test concentration not listed); 1.1% of 300,000 active; AID 2216, 2009;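 active = most replicates above 15%; inconclusive = exactly half above 15%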;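 note: 0% = DMSO wells and 100% = Ran loaded with GDP instead of GTP; wells of about 40 µL received 100 nL stock; the first replicate is given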
LANA-H2B inh: blockers of LANA interaction with H2A/H2B – biochemical, FP readout, HTS, primary screen. Protein LANA1 (Human herpesvirus 8 type P (isolate GK18)), Q9QR71. cell-free LANA-H2A/H2B peptide, fluorescence polarization. inhibition, % (test concentration not listed). 0.6% of 320,000 active. AID 2629, 2010; in the data active = inhibition mostly above about 10%, no sharp cut-off; inactive = mostly below about 6.7%;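 note: stock transfer was 7.5 nL into about 10 µL; 0% = median of vehicle wells and 100% = median of positive control wells; one replicate is shown; the record names a cut of 25% in any replicate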
Calb FLC: C. albicans growth inhibition with fluconazole, primary screen, CaCi-2 strain, Alamar Blue fluorescence | C. albicans CaCi-2 (fluconazole-resistant clinical isolate) + fluconazole, 48 h | growth inhibition, % (test concentration not listed) | 0.57% of 300,000 active | AID 1979, 2009;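 active = most replicates above 75%; inconclusive = exactly half above 75%; inactive = most below 75%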;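 note: all wells also contain fluconazole at 8 µg/ml as a sub-toxic cotreatment; 0% = median of DMSO wells and 100% = median of geldanamycin control wells; wells of about 8 µL received 7.5 nL stock; the first replicate is given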
Numbers without * were called inactive; i = inactive; ? = inconclusive; nt = not tested or not shown; & = joins results of further samples. Compounds were not picked by outcome, and some 4.3% of all compounds hit somewhere here.

SMILES	T cruzi inh	Vif A3G	AF4-AF9 inh	Beta apoptosis	A1 inh	RanGTP-Impb inh	LANA-H2B inh	Calb FLC
CCOc1cccc(C2C(C(=O)c3ccco3)=C(O)C(=O)N2c2nnc(C)s2)c1 (stereo not drawn)	nt	-13%	-5.7	-2	-1.7	nt	nt	nt
CCCS/C(N)=N/N=C/c1cc(C)ccc1O	-3	7%	nt	-4	1.7	3.4	2.0	7
Cc1ccc(Cl)cc1NC(=S)Nn1cnnc1	-20	nt	0.6	-5	-0.7	1.9	-4.5	-8
Nc1c(N(CCC2=CCCCC2)C(=O)c2ccc([N+](=O)[O-])o2)c(=O)[nH]c(=O)n1Cc1ccccc1	66*	6%	-12	19	0.2	3.5	0.4	-2
COc1ccc(-c2cc(C(=O)N/N=C(\C)c3cccnc3)c3cc(C)ccc3n2)cc1OC	-10	nt	1.8	13	-1.9	-1.7	2.1	-5
Cc1ccccc1NC(=O)Cn1c(O)c(N=NC(=O)c2ccccc2O)c2ccccc21	-11	?	nt	-6	-0.5	-3.0	i	3
O=C(Cc1ccc(F)cc1)N1CCC2(CC1)NCCc1[nH]cnc12	-1	nt	-0.5	-4	2.9	1.3	0.6	20
CN(C(=O)c1ccccc1)c1ccccc1C(=O)NCCc1ccccc1	-4	-4%	-0.6	nt	0.5	1.7	-0.6	-1
COc1cc(CN2CCC(Cc3ccccc3)CC2)c([N+](=O)[O-])cc1OC	3	nt	7.0	-6	0.0	4.3	-2.1	-3
COc1ccccc1N1CCN(S(=O)(=O)c2ccc(-n3cnnn3)c(C)c2)CC1	-12	7%	nt	nt	0.0	0.3	-1.0	-12
Cc1ccc(C(C)C)c(OCC(O)CN2CCN(CCO)CC2)c1 (stereo not drawn)	12	2%	nt	-2	-0.2	-1.3	3.2	-14
CC(C)(C)NC(=O)COC(=O)c1ccc(Cl)nc1	4	-3%	-7.5	-2	-0.1	11	4.1	23
O=C(O)C1=C[C@@H](C2CCCCC2)C[C@@H](OCCCCO)O1	-6	0%	-3.4&-3.9	3	1.1	1.2	-1.8	-14
O=C(Nc1ccc(F)cc1)c1ccc2nsnc2c1	-10	11%	-14	1	-6.2	?	0.3	2
CC(=O)Oc1ccc(C(=O)N2c3ccccc3NC(=O)C2C)cc1 (stereo not drawn)	0	15%	-46	-2	0.8	3.2	1.8	6
CC(C)c1ccc(OCc2cccc(C(=O)N/N=C/c3cccnc3)c2)cc1	-10	nt	14	-3	-0.9	4.3	nt	-13
O=C(COc1ccc(C(=S)N2CCOCC2)cc1)N1CCOCC1	-9	nt	-3.5	nt	0.0	-0.7	4.3	2
O=c1c2ccccc2oc2ncccc12	-6	2%	nt	0	-0.5	0.7	2.7	-7
O=C(Nc1ccc(F)cc1F)c1cncc(Br)c1	-10	?	-1.9	-2	-0.5	-3.5	-4.9	3
CCOc1ccc2[nH]c3c(N4CCc5ccccc5C4)ncnc3c2c1	35	0%	3.8	39	0.5	?	-0.7	-1
CCOC(=O)c1oc2cc(C)cc(O)c2c(=O)c1-c1csc(C)n1	-8	1%	nt	-5	0.0	-0.4	-5.2	-15
Clc1c(CSc2nc3ccccc3o2)nc2ccccn12	-10	12%	nt	0	-4.6	-4.7	0.4	-4
CCC1=C(OC(=O)N(CC)CC)N2C(=O)OC(=NCC(=O)OC)[C@]2(C)[C@H]2C1=CC[C@H]1C(=O)N(CC)C(=O)[C@H]12	-6	?	0.2	-1	-0.4	-1.2	-1.4	0
Cc1ccc(S(=O)(=O)/N=C(\CN2CCCCC2)N2CCOCC2)cc1	-5	1%	0.0	nt	-0.4	2.3	-2.5	13
O=C(CN(c1ccccc1)S(=O)(=O)c1ccc(F)cc1)NC1CCS(=O)(=O)C1 (stereo not drawn)	-4	11%	3.6	-1	0.6	-2.0	-0.1	-1

Continuation:
SMILES	T cruzi inh	Vif A3G	AF4-AF9 inh	Beta apoptosis	A1 inh	RanGTP-Impb inh	LANA-H2B inh	Calb FLC
CC1CCN(S(=O)(=O)c2ccc3c(c2)N(CC(=O)NCCCN2CCCCC2C)C(=O)CS3)CC1 (stereo not drawn)	28	-2%	3.9	-3	0.0	-0.2	1.4	0
Cc1noc(C)c1C(=O)N1CCN(c2ccccc2O)CC1	nt	-7%	0.7	2	0.2	nt	4.8	nt
O=C(CSc1nnc(NC(=O)C2CC2)s1)NCc1cccs1	-1	10%	0.9	3	0.7	0.7	2.9	0
Cc1ccc(-n2nnnc2SCn2nnc3ccccc3c2=O)c(C)c1	-47	4%	nt	56	0.3	-2.7	-0.8	16
CCCn1c2ccccc2c2cnn(CC(=O)NCCCN3CCCCC3CC)c(=O)c21 (stereo not drawn)	17	nt	2.0	-2	-0.2	2.5	-0.2	7
O=C(C1CC1)N(Cc1nc2ccccc2c(=O)[nH]1)Cc1cccs1	3	?	1.6	-5	1.5	6.9	-5.7	-1
Cc1ccc(F)cc1NC(=O)C1CCN(c2cnccn2)CC1	35	1%	nt	5	0.4	nt	0.0	-19
Cc1nn(C)cc1CN(C)C(=O)c1cc2nc(-c3ccco3)cc(C(F)(F)F)n2n1	-1	7%	nt	-3	-0.3	4.9	-1.3	?
CCCN1C(=O)/C(=C\C=C2/Sc3ccccc3N2CCO)SC1=S	12	-18%	-2.7	9	0.3	0.5	-0.7	0
O=C(O)c1cccc2c1C(=O)c1ccc(N3CCCC3)cc1S2(=O)=O	nt	nt	-3.2	-1	-0.8	nt	-7.9	nt
CCOC(=O)C1CCN(C(=O)C2CCN(S(=O)(=O)c3cccc4nsnc34)CC2)CC1	-28	-1%	-17	-2	0.7	1.8	-5.2	-10
COc1cccc(Nc2cc(C)nc3ccccc23)c1	23	9%	nt	21	0.3	-1.5	-0.3	-20
O=C(COC(=O)Cc1cccc(C(F)(F)F)c1)NC1CCS(=O)(=O)C1 (stereo not drawn)	1	-7%	-0.5	-1	0.1	-4.2	1.8	1
CCOC(=O)c1c(CSc2ccc(CC)cc2)oc2ccc(O)c(CN(C)C)c12	63*	nt	23	4	-0.4	5.0	-0.8	11
COc1ccc(Cl)cc1NC(=O)C(OC)c1ccccc1 (stereo not drawn)	-2	-6%	-2.2	2	1.1	?	5.5	-6
CC(=O)Oc1ccc(-c2ccc(C(=O)O)cc2)cc1	-8	1%	nt	3	-1.2	-3.7	5.4	0
Cc1ccc(Cl)cc1N1CCN(C(=O)c2cc3c(=O)n(C)c4ccccc4c3n2C)CC1	52	-1%	-6.1	-2	-1.3	2.2	2.4	-8
O=C(NCCN1CCOCC1)c1ccc([N+](=O)[O-])cc1[N+](=O)[O-]	41	?	nt	8	-0.2	4.3	1.6	1
CC(Oc1ccc(Br)cc1Br)C(=O)Nc1cccnc1Cl (stereo not drawn)	nt	nt	-2.1	2	1.7	nt	1.7	37
COCCCNCCOc1cc(C(C)C)ccc1C	22	9%	nt	-6	0.7	0.7	1.4	-15
Cc1cc(NC(=O)Nc2cccc(Cl)c2)n(-c2ccccn2)n1	20	nt	-3.1	20	-0.1	2.5	0.1	1
COC(=O)CCCCCNc1ccc(C(=O)OC)cc1N	-17	3%	nt	5	0.2	1.3	-4.7	2
O=C(Oc1ccc(N(C(=O)c2ccncc2)S(=O)(=O)c2cccs2)cc1)c1ccncc1	-2	2%	-2.6	-5	1.0	4.7	1.4	-7
COc1cc(-c2cc(C(=O)Nc3ccc(C)c(S(=O)(=O)N4CCOCC4)c3)c3ccccc3n2)cc(OC)c1OC	nt	-2%	-1.5	-20	-1.5	nt	-6.7	nt
CC1CCc2sc(C(=O)OCC(=O)NC(C)C)cc2C1 (stereo not drawn)	-6	-3%	0.0	3	0.0	1.9	-3.4	1

Next part:
SMILES	T cruzi inh	Vif A3G	AF4-AF9 inh	Beta apoptosis	A1 inh	RanGTP-Impb inh	LANA-H2B inh	Calb FLC
CCOc1ccc(-c2cc(N3C(=O)Nc4ccccc4N3O)on2)cc1	0	19%	nt	-3	-5.3	-0.3	-2.1	48
O=C(/C=C/c1cccc([N+](=O)[O-])c1)n1cnc2ccccc21	1	6%	-11	nt	nt	-0.5	nt	-3
O=C(C1CCN(Cc2ccc(Cl)cc2)CC1)N1CCN(Cc2ccc3c(c2)OCO3)CC1	5	nt	4.5	6	0.7	-1.3	5.5	4
CCOc1ccc(C2C(C#N)=C(N)Oc3cc(C)n(Cc4ccco4)c(=O)c32)cc1OC (stereo not drawn)	3	28%	nt	-2	-0.8	3.5	-0.2	4
CC(C)(C)NC(=O)c1ccc2c(c1)C(=O)N(Cc1ccco1)C2=O	-9	nt	-0.1	-2	0.4	-1.2	-3.6	-13
O=C(O)CCC(=O)Nc1sc2c(c1C(=O)NC1CCCC1)CCCC2	-1	5%	-0.6	-2	-0.9	1.9	1.4	7
COc1ccc(/C=N/Nc2nc(NCc3ccco3)nc(Nc3ccc(OC)cc3)n2)cc1	-9	15%	-17	-4	0.3	-0.3	-0.5	48
COc1cc(C2NC(=O)NC(C)=C2C(=O)OC(C)(C)C)ccc1OCC(N)=O (stereo not drawn)	0	15%	nt	1	0.3	0.7	-5.4	4
COc1ccc(/C=C/C(=O)c2cc(Cl)cc(Cl)c2O)c(OC)c1	19	5%	3.5	-2	1.1	0.5	-2.8	-4
O=C(NCCc1ccccc1)C1CC(=O)N(C2CCCC2)C1 (stereo not drawn)	-6	-1%	-1.8	-4	0.9	2.6	3.8	1
CCC(=O)Nc1nc(N)n(-c2ccccc2)n1	2	5%	nt	-12	-0.1	-3.5	2.8	-9
COc1ccccc1N=Nc1[nH]c2ccc(C)cc2c1O	-42	13%	nt	-2	1.1	-0.1	4.6	-10
O=S(=O)(Cc1ccccc1)N1CCCc2ccccc21	-2	2%	-3.0	-2	-0.9	6.2	7.2	-2
CN(CC(=O)Nc1ccccc1C(F)(F)F)C(=O)CSc1nnc(N)s1	nt	-5%	0.4	-1	0.0	nt	-3.5	nt
COc1ccc(C(=O)NNC(=O)c2cnccn2)cc1[N+](=O)[O-]	-18	8%	nt	-4	-0.2	1.8	-2.2	4
COc1ccc(N(CC(=O)Nc2ccc(F)c(F)c2)S(=O)(=O)c2c(C)[nH]c(=O)[nH]c2=O)cc1	-41	-7%	1.3	-4	-0.3	4.5	-2.4	-7
c1nnc(NC2=NCCCCC2)s1	-7	-1%	nt	-2	1.0	-2.0	6.6	20
O=C(O)CCc1nn2c3ccccc3n(Cc3ccccc3)c2nc1=O	1	nt	-1.5	2	0.5	-1.2	-0.9	1
CCN(C(=O)CN1CCCC(C)C1)c1c(N)n(Cc2ccccc2)c(=O)[nH]c1=O (stereo not drawn)	nt	nt	-1.0	1	-0.3	nt	13*	nt
COc1cccc(CNc2ccc3c(c2)CCC3)c1	60*	14%	nt	6	-0.4	1.1	2.1	-21
CN(CCc1ccccc1)C1CCCN(S(=O)(=O)c2cccc(F)c2)C1 (stereo not drawn)	41	1%	0.5	0	-0.6	-3.4	0.0	0

Assay outcomes (PubChem BioAssay)
